StopGo reporter – FMDV 2A StopGo reporter, luciferase signal | human cells with a luciferase reporter of 2A StopGo recoding; control for the full effect not named in the record | Potency, µM (top dose mostly 57.9 µM), inactives show top-dose signal change, negative = less light | actives 1.2% (n = 410,000) | AID 1159524; active = well fitted falling curve with a large enough effect; inconclusive = small, poorly fitted or top-dose-only effect; inactive = no such curve, though single readings can be large or run the other way; tested in HEK293T cells; note: % is set by controls: 0 for no effect and ±100 for the full control effect; nearly all actives have a fitted effect of over 45% in size; luciferase light after 4 h
MARV entry inh – blocks Marburg virus binding to or entry into cells; Marburg virus pseudotyped entry inhibition, cell reporter; control for the full effect not named in the record; about a third of the inactives were read at about 46 µM; Potency, µM (highest dose often 37.8 µM), for inactives: at the highest dose activity change, negative = inhibition, most hits filed as inhibitors; actives 1.8% (n = 300,000); AID 540276; active = well fitted inhibition curve with a large enough effect; inconclusive = small, poorly fitted or top-dose-only effect, or effect the other way; inactive = flat fitted curve, though single readings scatter; tested in HEK293 cells; about a fifth of its hits are not listed in these tables; note: % is set by controls: 0 for no effect and ±100 for the full control effect; luciferase read-out
NS1 function inh – influenza NS1 inhibition. S. cerevisiae slowed by influenza A NS1, growth recovery by OD600. Potency, µM (titrated, usually from 46.1 µM), without a hit: top-dose activity, positive = more growth. actives 0.4% (n = 270,000). AID 2326; active means well fitted rising curve with a large enough effect; inconclusive means small, poorly fitted or top-dose-only effect; inactive means no such curve, though single readings can be large or run the other way; note: nearly all actives have a fitted effect of over 50% in size
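Recovery from NS1-induced slow growth read by OD600 in budding yeast switched to galactose assay medium (pH 6.0, -URA) at 1:100 dilution. Compound 23 nl per well; the matching strain lacking NS1 serves as control.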
LASV entry inh – inhibitors of Lassa virus binding or cell entry | AID 540256 | Lassa virus pseudotype entry inhibition, cell reporter; control for the full effect not named in the record | actives 1.2% (n = 300,000) | Potency, µM (highest dose often 37.9 µM), without a hit: top-dose activity change, negative = inhibition, most hits filed as inhibitors; active means well fitted inhibition curve with a large enough effect; inconclusive means small, poorly fitted or top-dose-only effect, or effect the other way; inactive means flat fitted curve, though single readings scatter; tested in HEK293 cells; note: % is set by controls: 0 for no effect and ±100 for the full control effect; nearly all actives have a fitted effect of over 50% in size; luciferase read-out
Cruzain inh Det – blocks cruzain activity in presence of Triton detergent; purified cruzain, Z-FR-AMC fluorescence, 0.01% Triton; actives 0.43% (n = 200,000); Potency, µM, for the others: max response, negative = inhibition, hits mostly inhibitors; P25779;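 note: plate controls were neutral wells for no effect and buffer without enzyme for full effect; nearly all actives have a fitted effect of over 40% in size; top concentration of the series not given in the record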
Target sequence (P25779 123-467 limits assumed): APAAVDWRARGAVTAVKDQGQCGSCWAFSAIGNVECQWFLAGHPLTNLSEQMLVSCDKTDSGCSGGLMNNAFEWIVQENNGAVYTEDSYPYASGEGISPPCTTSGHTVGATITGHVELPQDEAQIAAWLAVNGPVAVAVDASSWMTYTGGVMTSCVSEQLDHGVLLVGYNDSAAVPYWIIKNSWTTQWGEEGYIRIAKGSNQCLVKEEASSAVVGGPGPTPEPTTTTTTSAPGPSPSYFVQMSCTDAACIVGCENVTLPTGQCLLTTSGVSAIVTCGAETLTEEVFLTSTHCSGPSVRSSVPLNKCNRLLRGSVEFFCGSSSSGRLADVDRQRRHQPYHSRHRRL
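Read-out: AMC fluorescence (360 nm excitation, 450 nm emission), four reads over 2 min, first-to-third difference used. Conditions: cruzain 1.5 nM, Z-FR-AMC 2 uM, pH 5.5 acetate, 5 mM DTT, 0.01% Triton X-100.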
Cruzain noTriton – cruzain (T. cruzi) inhibition without detergent; P25779; purified cruzain, Z-FR-AMC fluorescence, no detergent; Potency, µM, for the others: max response, negative = inhibition, usual class: inhibitors; actives 2.3% (n = 200,000);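 note: plate controls were enzyme without inhibitor for no effect and buffer without enzyme for full effect; nearly all actives have a fitted effect of over 40% in size; top concentration of the series not given in the record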
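Purified cruzain at 1.5 nM, pre-incubated 15 min with compound at room temperature in 100 mM sodium acetate pH 5.5, 5 mM DTT, 0.00005% Triton X-100. Reaction started with 2 uM Z-FR-AMC; AMC fluorescence increase over 60 s gives rate.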
RE007 growth inh – less growth of the S. pombe RE007 Vpr strain | Potency, µM (titrated, usually from 92.2 µM), without a hit: top-dose activity change, negative = less growth | actives 0.21% (n = 360,000) | S. pombe RE007 Vpr strain, BacTiter-Glo ATP luminescence, 24 h; control for the full effect not named in the record; active = well fitted falling curve with a large enough effect; inconclusive = small, poorly fitted or top-dose-only effect; inactive = no such curve, though single readings can be large or run the other way;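 note: % is set by controls: 0 for no effect and ±100 for the full control effect; nearly all actives have a fitted effect of over 50% in size; the assay follows cell death caused by Vpr and the record does not say whether a fall means rescue or toxicity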
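Fission yeast RE007 carrying one integrated HIV-1 vpr copy, seeded at OD 0.01 in PMG+AL medium with 23 nL pinned compound. Grown 24 h at 30 degrees; viability read by BacTiter-Glo luminescence after 5 min.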
SARS PLP yeast – SARS-CoV PLP inhibition in yeast | S. cerevisiae expressing SARS-CoV PLpro, growth rescue; control for the full effect not named in the record | Potency, µM (highest dose often 32.9 µM), without a hit: top-dose activity, positive = growth rescue | actives 0.19% (n = 330,000) | AID 485353; active means well fitted rising curve with a large enough effect; inconclusive means small, poorly fitted or top-dose-only effect; inactive means no such curve, though single readings can be large or run the other way; note: 0% is about no effect; nearly all actives have a fitted effect of over 55% in size; growth read by luminescence after 48 h
Active calls of the source: *; & = joins results of further samples; [ ] = another dose, or the depositor's remark. Unless noted, calls come from the whole dose curve; as a rule, active = well fitted curve in the direction sought with a large enough effect; inconclusive = small, poorly fitted or top-dose-only effect, or another doubt; inactive = no such curve, though single readings can be large; an effect the other way counts as inactive or inconclusive. Potency is the fitted concentration of half-maximal effect.

How did Cc1ccc(-c2nc(SCC(=O)NCCN3C(=O)CSC3=O)[nH]c2-c2ccc(C)cc2)cc1 do in these assays?
MARV entry inh: 0.0%; NS1 function inh: 14.9%; Cruzain inh Det: -9.8%; Cruzain noTriton: inconclusive; SARS PLP yeast: 1.3%

Results for COc1ccc(C(=O)NCCC2=CCCCC2)cc1 ?
StopGo reporter: 12.6µM*; MARV entry inh: 7.31µM*; NS1 function inh: -14.7%; LASV entry inh: inconclusive; Cruzain inh Det: -5.6%; Cruzain noTriton: -13.6%; RE007 growth inh: -6.8%; SARS PLP yeast: -8.0%

Results for CC(=NCCC(c1ccccc1)c1ccccc1)c1c(O)n(C)c(=O)n(C)c1=O ?
StopGo reporter: -28.6%; MARV entry inh: inconclusive; NS1 function inh: 4.0%; LASV entry inh: inconclusive; Cruzain inh Det: -5.6%; Cruzain noTriton: 13.5%; RE007 growth inh: 5.4%; SARS PLP yeast: 6.7%

How did O=C(O)c1ccc(NC(=O)c2cccs2)cc1 do in these assays?
StopGo reporter: -1.3%; MARV entry inh: 3.6%; NS1 function inh: -2.6%; LASV entry inh: 5.2%; Cruzain inh Det: -1.2%; Cruzain noTriton: -2.9%; RE007 growth inh: -11.3%; SARS PLP yeast: 11.7%

Results for O=C(NCc1ccccc1)C1CCCN(S(=O)(=O)c2cccc3nsnc23)C1 (configuration not stated) ?
StopGo reporter: -28.5%&-3.5%; MARV entry inh: -15.0%[46.1 µM]; NS1 function inh: 4.7%; LASV entry inh: 15.2%[46.1 µM]; Cruzain inh Det: -2.7%; Cruzain noTriton: -4.6%; RE007 growth inh: -1.8%; SARS PLP yeast: 6.4%

How did COc1cccc(-n2c(SCC(=O)NCCc3ccccc3)nnc2-c2ccoc2C)c1 do in these assays?
StopGo reporter: -11.6%; MARV entry inh: inconclusive; NS1 function inh: -59.0%; LASV entry inh: inconclusive; Cruzain inh Det: -0.9%; Cruzain noTriton: -5.1%; RE007 growth inh: 4.6%; SARS PLP yeast: 8.1%

What do the screens show for `CC(C)c1ccc(Nc2cc(C(=O)NCCCN(C)Cc3ccccc3)c3ccccc3n2)cc1`?
StopGo reporter: -10.9%; LASV entry inh: 7.0%[46.1 µM]; Cruzain inh Det: 0.1%; Cruzain noTriton: 6.7%

What do the screens show for `Clc1ccccc1C1=CC(c2ccco2)n2ncnc2N1` (configuration not stated)?
StopGo reporter: -20.5%; MARV entry inh: -36.3%; NS1 function inh: 0.4%; LASV entry inh: 20.2%; RE007 growth inh: 20.7%; SARS PLP yeast: -1.2%

How did Cc1ccc(NC(=S)N(CCN2CCCCC2)Cc2ccco2)cc1Cl do in these assays?
StopGo reporter: -0.8%; MARV entry inh: inconclusive; NS1 function inh: -4.4%; LASV entry inh: inconclusive; RE007 growth inh: -9.5%; SARS PLP yeast: 0.1%

What do the screens show for `COc1ccccc1C(=O)NCCCn1cc(Br)c(C)n1`?
StopGo reporter: -17.7%; MARV entry inh: 10.3%; NS1 function inh: -5.4%; LASV entry inh: 1.5%; Cruzain inh Det: -1.4%; Cruzain noTriton: -6.0%; RE007 growth inh: -3.1%; SARS PLP yeast: -1.3%

How did CC(=O)OCC(=O)Nc1ccc(Cl)cc1Cl do in these assays?
StopGo reporter: 9.5%; MARV entry inh: 14.7%; NS1 function inh: -7.9%; LASV entry inh: 13.2%; Cruzain inh Det: 1.3%; Cruzain noTriton: -6.5%; RE007 growth inh: -3.7%; SARS PLP yeast: inconclusive

How did CCCNC(=O)Cn1c(=O)n(CC2CCC(C(=O)NC)CC2)c(=O)c2sccc21 (configuration not stated) do in these assays?
StopGo reporter: -4.5%; LASV entry inh: inconclusive; Cruzain inh Det: -0.9%; Cruzain noTriton: -6.7%

Results for Cc1ccc(S(=O)(=O)NCc2ccc(C(=O)NC3CCC(C)CC3)cc2)cc1 (configuration not stated) ?
StopGo reporter: -15.9%; NS1 function inh: 4.1%; RE007 growth inh: 0.1%; SARS PLP yeast: 4.7%

How did Cc1cc(N2CCN(C3CCCC3)CC2)n2c(nc3ccccc32)c1C#N do in these assays?
StopGo reporter: -19.7%; MARV entry inh: -9.6%&-9.6%; NS1 function inh: 4.9%; LASV entry inh: -7.7%; Cruzain inh Det: -3.1%; Cruzain noTriton: -9.9%; RE007 growth inh: -11.6%; SARS PLP yeast: -6.2%

What do the screens show for `Cc1cccc(NC(=O)C2CCCN2S(=O)(=O)c2ccc3nc(-c4ccccc4)[nH]c3c2)c1` (configuration not stated)?
StopGo reporter: -26.1%; LASV entry inh: -23.1%[46.1 µM]; Cruzain inh Det: -6.0%; Cruzain noTriton: 4.9%

How did O=C(O)c1ccc(NC(=O)c2cccc(N3C(=O)C4C5CCC(C5)C4C3=O)c2)cc1 (configuration not stated) do in these assays?
StopGo reporter: -1.3%; MARV entry inh: -1.0%; NS1 function inh: 8.4%; LASV entry inh: -3.1%; Cruzain inh Det: -1.1%; Cruzain noTriton: -0.4%; RE007 growth inh: -7.9%; SARS PLP yeast: -15.6%

Results for Cc1nc2ccccc2c(=O)n1NC(=O)CCC(=O)O ?
StopGo reporter: 5.1%; MARV entry inh: 1.4%; NS1 function inh: 3.7%; LASV entry inh: -6.4%[46.1 µM]; RE007 growth inh: 22.7%; SARS PLP yeast: 0.4%

Results for CN(C)C=NC(=O)c1ccc([N+](=O)[O-])c(CS(=O)(=O)c2ccc(Cl)cc2)c1 ?
StopGo reporter: -27.3%; MARV entry inh: -20.8%; NS1 function inh: 6.6%; LASV entry inh: inconclusive; Cruzain inh Det: 2.1%; Cruzain noTriton: -8.7%; RE007 growth inh: -9.7%; SARS PLP yeast: 2.5%

Results for O=C(NNC(=O)C1CC(=O)N(Cc2ccccc2)C1)c1ccc(Br)cc1 (configuration not stated) ?
StopGo reporter: -6.6%; NS1 function inh: 8.7%; RE007 growth inh: 5.2%; SARS PLP yeast: 24.2%

Results for Cc1cccc(N2CCN(C(=O)c3ccc(Cl)c(S(=O)(=O)NCc4ccco4)c3)CC2)c1C ?
StopGo reporter: inconclusive; MARV entry inh: inconclusive; NS1 function inh: -5.7%; LASV entry inh: -18.9%; Cruzain inh Det: -4.6%; Cruzain noTriton: -10.8%; RE007 growth inh: 12.6%; SARS PLP yeast: 1.4%

What do the screens show for `CC(C)c1ccc(NC(=S)Nc2ccc(OC(F)(F)F)cc2)cc1`?
StopGo reporter: -9.5%; MARV entry inh: -13.1%[46.1 µM]; NS1 function inh: -2.0%; LASV entry inh: -17.4%[46.1 µM]; RE007 growth inh: 5.0%; SARS PLP yeast: -0.4%

Results for CCc1ccc(NC(=O)c2sc(-n3nc(C)c(Cc4ccc5c(c4)OCO5)c3C)nc2C)cc1 ?
StopGo reporter: -26.1%; MARV entry inh: 1.2%[46.1 µM]; LASV entry inh: 10.6%[46.1 µM]; Cruzain inh Det: -0.4%; Cruzain noTriton: 4.3%

Results for Cc1nnc(NC(=O)Cn2nc(C)c3ccccc3c2=O)s1 ?
StopGo reporter: -0.6%; MARV entry inh: -8.1%[46.1 µM]; NS1 function inh: 5.2%; LASV entry inh: 12.0%[46.1 µM]; RE007 growth inh: -2.0%; SARS PLP yeast: -1.4%

What do the screens show for `CC(=O)Nc1cccc(-c2csc(NCc3ccco3)n2)c1`?
StopGo reporter: 43.6%[activator]; MARV entry inh: -2.1%; NS1 function inh: 4.1%; LASV entry inh: -4.3%; Cruzain inh Det: 0.6%; Cruzain noTriton: 0.0%; RE007 growth inh: 16.9%; SARS PLP yeast: -4.1%

How did COc1ccccc1/C=N/N1C(=O)C2C3C=CC(CC3)C2C1=O (configuration not stated) do in these assays?
StopGo reporter: 11.2%; MARV entry inh: -6.3%[46.1 µM]; LASV entry inh: -12.6%; RE007 growth inh: 3.8%; SARS PLP yeast: -6.4%

Results for O=C(O)/C(=C\c1cccs1)Sc1nnc(-c2ccc(F)cc2)o1 ?
StopGo reporter: 1.6%; MARV entry inh: -7.1%[46.1 µM]; LASV entry inh: -16.9%[46.1 µM]; RE007 growth inh: -9.1%; SARS PLP yeast: -0.2%

Results for Cc1ccc(N(C(=O)c2cnccn2)C(C(=O)NC2CCCCC2)c2ccc(O)cc2)cc1 (configuration not stated) ?
StopGo reporter: -2.4%; MARV entry inh: 15.2%[14.2 µM]; NS1 function inh: -6.0%; LASV entry inh: inconclusive; RE007 growth inh: 1.5%; SARS PLP yeast: -0.3%

What do the screens show for `O=C(CCOc1ccccc1)Nc1ccc(Br)cc1`?
StopGo reporter: 95.9%[activator]; MARV entry inh: inconclusive; NS1 function inh: 0.0%; LASV entry inh: 1.2%; RE007 growth inh: 7.7%; SARS PLP yeast: -1.9%

Results for O=C(COC(=O)CN1C(=O)C2CCCCC2C1=O)Nc1cc(S(=O)(=O)N2CCOCC2)ccc1Cl (configuration not stated) ?
StopGo reporter: -27.4%; MARV entry inh: -1.3%; NS1 function inh: -12.0%; LASV entry inh: 6.0%; Cruzain inh Det: -1.7%; Cruzain noTriton: 21.9%; RE007 growth inh: -3.8%; SARS PLP yeast: 14.3%

Results for CCN(CC)S(=O)(=O)c1ccc(N(C)Cc2ccc(C(F)(F)F)cc2)nc1 ?
StopGo reporter: inconclusive; MARV entry inh: inconclusive; NS1 function inh: 19.0%; LASV entry inh: 4.47µM*; Cruzain inh Det: -4.5%; Cruzain noTriton: 15.8%; RE007 growth inh: -2.7%; SARS PLP yeast: -6.4%

Results for CCCCn1c(N)c(N(CC)C(=O)c2cc(S(=O)(=O)N3CCCCCC3)ccc2OC)c(=O)[nH]c1=O ?
StopGo reporter: -16.2%; MARV entry inh: 25.3%; LASV entry inh: 18.1%; RE007 growth inh: 6.4%; SARS PLP yeast: inconclusive

What do the screens show for `Cc1ccc(NC(=O)c2ccco2)c(NC(=O)Cc2cccs2)c1`?
StopGo reporter: 16.0%; MARV entry inh: 6.8%; NS1 function inh: -1.8%; LASV entry inh: 8.9%; Cruzain inh Det: 3.4%; Cruzain noTriton: -0.3%; RE007 growth inh: 0.3%; SARS PLP yeast: -1.7%

How did Brc1ccc(-c2csc(-c3c[nH]c4ccccc34)n2)cc1 do in these assays?
StopGo reporter: 29.2%; MARV entry inh: inconclusive; NS1 function inh: -15.9%; LASV entry inh: -6.6%; Cruzain inh Det: -3.9%; Cruzain noTriton: inconclusive; RE007 growth inh: 0.0%; SARS PLP yeast: -5.7%

Results for CCOCCCn1c(=NC(C)=O)c(C(=O)OCC)cc2c(=O)n3ccccc3nc21 ?
StopGo reporter: -20.4%&-8.8%; MARV entry inh: 1.6%&-9.3%; NS1 function inh: -10.8%; LASV entry inh: 10.0%[46.1 µM]; Cruzain inh Det: inconclusive; Cruzain noTriton: inconclusive; RE007 growth inh: -3.2%&-17.9%; SARS PLP yeast: -0.1%

Rows are unselected; any-hit rate near 4.5%.
